High-throughput results (PubChem BioAssay)
GIV Gai3 FP: blocks GIV peptide binding to rat Galpha-i3; 0.42% of 210,000 active; Galpha-i3/FITC-GIV peptide fluorescence polarization, 90 min; stronger effect = lower value; scaled: aluminum fluoride 0%, vehicle 100%; AID 1224905; percent of control (FP), % (test concentration not listed);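 active = replicate mean at 85% of control or lower, very high polarization wells dropped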;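 also: wells of about 15 µL received 100 nL stock; the first replicate is given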
Target sequence (P08753 whole entry, looked up): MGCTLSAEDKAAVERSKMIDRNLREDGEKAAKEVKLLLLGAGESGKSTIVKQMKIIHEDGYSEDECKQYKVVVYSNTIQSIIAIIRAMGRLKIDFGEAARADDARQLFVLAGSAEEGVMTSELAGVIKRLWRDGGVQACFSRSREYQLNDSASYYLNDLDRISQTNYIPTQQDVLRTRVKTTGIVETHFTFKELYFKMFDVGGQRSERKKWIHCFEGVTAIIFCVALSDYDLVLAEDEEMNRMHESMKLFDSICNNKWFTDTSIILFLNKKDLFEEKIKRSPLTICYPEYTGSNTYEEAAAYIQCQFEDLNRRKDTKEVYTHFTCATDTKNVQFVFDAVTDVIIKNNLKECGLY
HCMV NEC inh: inhibitors of HCMV UL50-UL53 nuclear egress complex interaction; HTRF UL50-UL53 interaction, normalized percent inhibition; inhibition, % (no concentration beside the values); 0.15% of 190,000 active; AID 1918969;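 active = both replicates at 50% or more, plus weaker picks with an unusually low signal ratio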;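 also: stock transfer was 100 nL into about 20 µL; 0% = negative control wells and 100% = wells with untagged competitor protein; inactives centre near -12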
Sa growth inh: blocks Staphylococcus aureus growth; 0.53% of 170,000 active; AID 720641; S. aureus RN4220 growth, OD600, 20 h, 42 °C; stronger effect = lower value; relative growth, % (concentration not given with the values);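 active = growth at 42 °C up to 50% and 20 or more points under that at 30 °C, or under 10% at both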;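 also: 300 nL library stock went into each well; scaled to the means of positive and negative controls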
Sa growth inh second temp: recorded beside Sa growth inh, whose call it bears; relative growth, %; measured here: growth at 30 °C;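 optical density after 20 h as mean of two plates; 100% = untreated growth and lower means inhibition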
The depositor's hits bear a star; / = no result given; & = joins results of further samples.

The opening 13 records as a preview:
SMILES | GIV Gai3 FP | HCMV NEC inh | Sa growth inh | Sa growth inh second temp
Cc1c(C(=O)N(C)C2CCCCC2)sc2nc(-c3ccc(F)cc3)cn12 | 104 | / | 92 | 87
C=CCn1c(SCC(=O)c2cccs2)nc2sc3c(c2c1=O)CCC3 | 105 | -25 | / | /
O=C(/C=C/c1ccc([N+](=O)[O-])cc1)Nn1c(-c2ccc(Br)cc2)nc2ccccc2c1=O | 109 | -50 | / | /
COc1ccc(S(=O)(=O)Nc2cc3c(cc2N2CCOCC2)n(C)c(=O)c(=O)n3C)cc1Cl | 103 | -53 | / | /
COc1cc(C(=O)Nc2ccc(Cl)c(-c3nc4cc(Cl)ccc4o3)c2)cc(OC)c1OC | 100 | -3 | / | /
CCOC(=O)C1(CCCCCCOc2ccc(Cl)cc2)CO1 (stereo unspecified) | / | -32 | 106 | 107
Cn1c(C(=O)N2CCCCC2)cc2c(=O)n3ccccc3nc21 | 104 | -63 | / | /
COc1ccc(Cn2c(CCC(=O)NC3CCCC3)nc3cccnc32)cc1 | 100 | 0 | 83 | 86
COc1cc(OC)c(NC(=O)CCNS(=O)(=O)c2ccc3c(c2)oc(=O)n3C)cc1Cl | 105 | -43 | 94 | 82
CCN(C(=O)/C=C/c1cccs1)C1CCCCC1 | / | -27 | 82 | 101
Cc1cccn2c(=O)c(/C=N/NC(N)=S)c(N3CCCC3)nc12 | / | -2 | 100 | 93
CCc1nnc(SCC(=O)O)o1 | 102 | -127 | 90 | 84
CC(=O)Nc1ccc2c(c1)CN(Cc1ccccc1)CO2 | 104 | -46 | 90 | 86

All compounds of this part, from the start:
SMILES | GIV Gai3 FP | HCMV NEC inh | Sa growth inh | Sa growth inh second temp
Cc1c(C(=O)N(C)C2CCCCC2)sc2nc(-c3ccc(F)cc3)cn12 | 104 | / | 92 | 87
C=CCn1c(SCC(=O)c2cccs2)nc2sc3c(c2c1=O)CCC3 | 105 | -25 | / | /
O=C(/C=C/c1ccc([N+](=O)[O-])cc1)Nn1c(-c2ccc(Br)cc2)nc2ccccc2c1=O | 109 | -50 | / | /
COc1ccc(S(=O)(=O)Nc2cc3c(cc2N2CCOCC2)n(C)c(=O)c(=O)n3C)cc1Cl | 103 | -53 | / | /
COc1cc(C(=O)Nc2ccc(Cl)c(-c3nc4cc(Cl)ccc4o3)c2)cc(OC)c1OC | 100 | -3 | / | /
CCOC(=O)C1(CCCCCCOc2ccc(Cl)cc2)CO1 (stereo unspecified) | / | -32 | 106 | 107
Cn1c(C(=O)N2CCCCC2)cc2c(=O)n3ccccc3nc21 | 104 | -63 | / | /
COc1ccc(Cn2c(CCC(=O)NC3CCCC3)nc3cccnc32)cc1 | 100 | 0 | 83 | 86
COc1cc(OC)c(NC(=O)CCNS(=O)(=O)c2ccc3c(c2)oc(=O)n3C)cc1Cl | 105 | -43 | 94 | 82
CCN(C(=O)/C=C/c1cccs1)C1CCCCC1 | / | -27 | 82 | 101
Cc1cccn2c(=O)c(/C=N/NC(N)=S)c(N3CCCC3)nc12 | / | -2 | 100 | 93
CCc1nnc(SCC(=O)O)o1 | 102 | -127 | 90 | 84
CC(=O)Nc1ccc2c(c1)CN(Cc1ccccc1)CO2 | 104 | -46 | 90 | 86
Cc1ccc(C(=O)N/C(N)=N/c2nc3ccccc3s2)cc1 | 99 | / | 96 | 85
CN(C)c1ccc(C=C2C(=O)OC(C)(C(C)(C)C)OC2=O)cc1 (stereo unspecified) | 17* | 1 | 95 | 96
O=C(c1cnn(-c2ccccc2)c1-n1cccc1)N1CCc2ccccc2C1 | 108 | 2 | 108 | 98
Cc1ccccc1NC(=O)CN(C)S(=O)(=O)c1cccs1 | 107 | -36 | 89 | 91
c1ccc(Oc2ccc(N=NN3CCCCC3)cc2)cc1 | 101 | -17 | 125 | 89
CC(C)c1ccc(N2CC(O)=C(c3nc4ccccc4[nH]3)C2=N)cc1 | 100 | / | 108 | 88
CS(=O)(=O)Nc1csc(C(F)(F)F)c1-c1ccccc1 | 103 | -6 | 113 | 93
Cc1nc(Nc2nc(C)c3ccccc3n2)[nH]c(=O)c1CCC(C)C | 96 | -16 | / | /
Cc1cccc(NC(=O)CO/N=C/c2cccs2)c1 | / | -48 | 95 | 92
COc1ccc2ncc(-c3ccc(Cl)c(C)c3)nc2c1 | 100 | / | 93 | 84
CC(C)OC(=O)CC12CN(C)CC(CC(=O)OC(C)C)(CN(C)C1)C2=O | 103 | -18 | 95 | 82
CCOc1ccc(CC(=O)NCCc2csc(-c3ccc(C)cc3)n2)cc1 | 93 | / | 102 | 88
CCC(Cc1ccccc1)NC(C)=O (stereo unspecified) | 108 | -2 | 110 | 74
O=C(c1nc(-c2ccccc2)n(-c2ccccc2)n1)N1CCCCC1 | 94 | -4 | 89 | 91
CCOC(=O)c1csc(-c2sccc2Br)n1 | 106 | -101 | 98 | 77
COc1ccc(N2CCN(c3ccc(NS(=O)(=O)c4ccccc4)nn3)CC2)cc1 | / | -97 | 84 | 89
COc1ccc2c(c1)cc(C(=O)Nc1cccc(Br)c1)n2C | 103 | -8 | / | /
Cc1ccc(-n2nc3c(N4CCC(C(=O)N(C)Cc5ccccc5)CC4)nnc(C)c3c2C)cc1 | 112 | / | 90 | 92
COc1ccccc1/C=C/C(=O)Nc1ccccn1 | 106 | -16 | 103 | 93
O=C(NCCc1ccco1)c1ncoc1-c1cccs1 | 110 | -59 | 107 | 92
CCc1nc2cccnc2n1-c1ccc(CC(=O)N2CCCCCC2)cc1 | 103 | 10 | 104 | 106
O=C1CSCC(=O)N1c1ccc(OC(F)(F)F)cc1 | 106 | -64 | 88 | 90
COC(=O)c1sc(N)c(C(=O)OC)c1CN1C(=O)c2ccccc2S1(=O)=O | / | -27 | 88 | 70
COC(=O)c1ccc(-c2ccco2)n1CC(=O)N1CCCC1 | 101 | / | 111 | 82
Cc1ccccc1Nc1c(-c2ccsc2)nc2c(C)cccn12 | 102 | 15 | 107 | 102
COc1cc(C(CC(=O)O)N2Cc3ccccc3C2=O)cc(OC)c1OC (stereo unspecified) | 105 | -22 | 91 | 88
Cc1cc(C)c2c(c1)NC(=O)CC2c1cccc(Cl)c1Cl (stereo unspecified) | 93 | / | 96 | 92
O=C(c1cnn2ccccc12)N1CCC(C(O)(c2ccccc2)c2ccccc2)CC1 | 102&104 | -17 | 108 | 92
Cc1nn(-c2ccccc2)c(Cl)c1C(=O)Nc1sc2c(c1C(N)=O)CCCC2 | / | -33 | 102 | 88
Cn1c(SCC2CCCCO2)nnc1-c1ccccc1 (stereo unspecified) | / | -15 | 112 | 84
COC(=O)c1ccc(CSc2nnc(-c3ccccc3)o2)o1 | 103 | -6 | 103 | 66
O=C(Nc1cccc2cccnc12)c1cc(-c2ccc(Cl)cc2)nc2ccccc12 | 96 | 15 | / | /
CCCN(CCC)S(=O)(=O)c1ccc(C(=O)Nc2cccc(-c3nc4ccccc4[nH]3)c2)cc1 | 106 | / | 99 | 84
CCCS(=O)(=O)c1c(S(=O)(=O)CCC)c2cc(CC)ccn2c1C(=O)c1ccc(Cl)cc1 | 101 | 0 | 95 | 91
CN(C)C(=O)c1cnn(-c2ccccc2)c1NC(=O)c1ccc(Br)cc1 | 101 | -7 | 107 | 92
COc1ccc(S(=O)(=O)NCC(c2ccco2)S(=O)(=O)c2cccs2)cc1F (stereo unspecified) | 101 | / | 131 | 81
Cc1cccc(-n2c(-c3ccco3)nc3c(cnn3-c3ccc(F)cc3)c2=O)c1 | 107 | 0 | 108 | 88
C=CCn1c(Sc2ncc(C#N)c(N)n2)nnc1-c1cccs1 | 99 | -10 | 87 | 86
COc1cccc(CNC(=O)c2ccc(N3CCCC3=O)cc2)c1OC | 100 | / | 79 | 83
c1ccc2c(c1)nc1n2CCN1CCNC1CCCCC1 | 109 | -5 | 93 | 110
COc1cc(Nc2nc3ccccc3c3nnc(C)n23)cc(OC)c1OC | 104 | -24 | 139 | 88
Cc1cc(OCC(=O)NCCO)cc(C)c1Cl | 106 | -1 | 101 | 94
CCCNC(=O)c1sc2nc(-c3ccccc3)cn2c1C | 101 | -12 | 90 | 79
N#Cc1ccc(NC(=O)CCCSc2nc3ccccc3s2)cc1 | / | -14 | 100 | 94
Cc1ccc(Cl)cc1N1CCN(CCCNC(=O)c2nnc(Cc3c(F)cccc3Cl)o2)CC1 | 97 | -19 | / | /
O=C(c1ccccc1)N1CC(=O)N2CCc3ccccc3C2C1 (stereo unspecified) | 96 | -6 | 100 | 70
O=C(Nc1cccc2ccccc12)C12CC3CC(CC(C3)C1)C2 | 103 | / | 88 | 86

The list goes on.
SMILES | GIV Gai3 FP | HCMV NEC inh | Sa growth inh | Sa growth inh second temp
CC(Sc1nnc(-c2ccco2)n1-c1ccccc1)C(=O)c1ccc(Br)cc1 (stereo unspecified) | / | -12 | 102 | 83
CCCN1Cc2cccc(C(=O)N3CCN(c4ccccc4)CC3)c2C1=O | 101 | / | 88 | 89
CSc1cccc(NC(=O)CN2C(=O)COc3ccc(Cl)cc32)c1 | 109 | -48 | 83 | 91
Cc1c(C(=O)NN)nn(-c2ccccc2)c(=O)c1C#N | / | -110 | 79 | 77
CN1/C(=C\C(=O)COC(=O)C2CC(=O)N(Cc3ccccc3)C2)C(C)(C)c2ccccc21 (stereo unspecified) | / | -13 | 102 | 90
CCc1ccccc1N(C)C(=O)Cc1nc(-c2ccc(OC)cc2)no1 | 106 | -13 | 85 | 85
CCOc1ccc(CCNC(=O)c2cc(C)nc3c2c(C)nn3-c2cccc(F)c2)cc1 | 102 | / | 104 | 87
CCCS(=O)(=O)c1nc(S(=O)(=O)c2ccc(C)cc2)c(NCCCOC(C)C)s1 | 100 | 13 | 89 | 83
COc1ccc(Cl)cc1N(CC(=O)NCCSc1ccccn1)S(=O)(=O)c1ccc(C)cc1 | 100 | -6 | / | /
CCOc1cc(CNCCSc2nnnn2C)cc(Br)c1OCC(N)=O | 109 | 14 | / | /
Cc1ccc2c(=O)cc(-c3ccccc3C(=O)O)oc2c1 | 105 | -20 | 96 | 89
O=C(Nc1nnc(CCS(=O)(=O)c2ccc(Br)cc2)s1)c1cccs1 | 102 | -12 | / | /
Cc1ccc(-n2ncc3c(NCCC4=CCCCC4)ncnc32)cc1C | 106 | / | 101 | 99
O=C(Oc1cncc(Cl)c1)c1cc2ccccc2s1 | 96 | -17 | 88 | 90
Cc1cc(=O)n(CC(=O)N2CCc3ccccc32)c2c1c(C)nn2-c1cccc(F)c1 | 98 | -26 | 98 | 84
CC(C)=NNC(=O)c1c(O)c2ccccc2[nH]c1=O | 101 | 7 | 87 | 94
COc1cc2c(cc1OC)C(COc1ccc(F)cc1)N(C(=O)c1ccc(Cl)cc1)CC2 (stereo unspecified) | 102 | / | 93 | 81
Cc1ccc(C)c(Cn2cnc3c(nnn3Cc3ccccc3F)c2=O)c1 | 101 | 3 | 123 | 97
CC(C)Cn1cc(NC(=O)N2CCCCC2c2cccnc2)c2ccccc2c1=O (stereo unspecified) | 103 | 5 | 102 | 101
Cn1c2ccccc2c2nnc(SCC(=O)Nc3nc4ccc([N+](=O)[O-])cc4s3)nc21 | 112 | 3 | / | /
CCOc1ccc(C(=O)N(Cc2sccc2C)C2CCS(=O)(=O)C2)cc1 (stereo unspecified) | 99 | -2 | 99 | 91
CCCCOc1ccc(C(=O)Nc2cc(-c3ccc(C)cc3)no2)cc1 | 101 | -18 | 102 | 91
C=CCOc1cc(OCC=C)cc(C(=O)O)c1 | 106 | -14 | / | /
CCOc1ccccc1NC(=O)CSc1ccc2nc(-c3ccccc3)cn2n1 | 106 | / | 107 | 75
O=C(Nc1nccs1)c1ccccc1C(=O)Nc1nccs1 | / | -18 | 93 | 93
O=c1c(NCc2ccccc2Cl)nccn1-c1ccc2c(c1)OCO2 | 107 | 23 | / | /
Nc1nc2nc(-c3ccccc3)cc(-c3ccccc3)n2n1 | 99 | -14 | 109 | 70
C=CCn1c(C(C)Oc2ccc(Cl)cc2Cl)n[nH]c1=S (stereo unspecified) | 98 | -30 | 86 | 60
OCCSc1nc(-c2cccs2)nc2ccccc12 | / | -49 | 99 | 92
N#Cc1ccccc1NC(=O)CNCC1CCCO1 (stereo unspecified) | 100 | -4 | 87 | 85
Cc1ccc(Cl)cc1NC(=O)C1CCN(Cc2cnn(-c3ccccc3)c2-n2cccc2)CC1 | 105 | -17 | / | /
CCc1ccccc1NC(=O)CN1C(=O)C2CCCN2c2ccc(S(=O)(=O)N(CC)CC)cc21 (stereo unspecified) | 128 | / | 94 | 91
Cc1ccccc1-c1nc(SCC(=O)N(C)c2ccccc2)c2c(=O)n(C)c(=O)n(C)c2n1 | 98 | / | 81 | 73
Cc1ccc(NC(=S)N(Cc2cn(C)c3ccccc23)C(C)C)cc1 | 104 | / | 107 | 85
COc1cc(NC(=O)Cn2c(-c3cncs3)nc3ccccc32)cc(OC)c1OC | 101 | -1 | 81 | 51
Cc1ccc2c(c1)c1c(c(=O)n(-c3ccccc3C)c(=O)n1Cc1cccc(F)c1)n2C | 109 | / | 91 | 87
O=C(OC1CSSCC1OC(=O)c1ccccc1)c1ccccc1 (stereo unspecified) | 100 | 42 | 99 | 91
Cc1cc(C)c(C#N)c(SCC(=O)N(CC(C)C)C2CCS(=O)(=O)C2)n1 (stereo unspecified) | / | -8 | 106 | 95
CCn1c(=O)c(-c2noc(CCC(=O)NCCC(C)C)n2)nn(-c2ccccc2)c1=O | 105 | -54 | / | /

Compounds were not picked by outcome; overall some 0.83% were active at least once.
